Insulin prom inh = inhibitors of insulin promoter-driven GFP, primary screen, imaging, TRM-6 cells (human fetal islet line), eGFP reporter, cell count | reporter expression induced with tamoxifen | inhibition, % at 2 µM | hit rate 0.9% among 130,000 | AID 1273, 2008;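 active = inhibition above the mean plus 3 SD, with well images judged a real hit on visual review, cut at about 60% in these data, passing the limit was not always enough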
HSV replic up = enhancers of HSV replication in host cells, fold increase, host cell viability; HSV replication augmentation in cells; maximum fold increase; hit rate 0.005% among 220,000;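 active = peak rise of 1.5-fold or more in the series; tested in PC3 cells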;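 also: first round at 10 µM; read as green reporter fluorescence; hits show the peak of a series up to 25 µM; 1 = signal of infected wells without compound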
RGS16-Gao HTS = modulators of RGS16 binding to Galphao, primary screen, biochemical, human proteins, multiplexed bead flow cytometry; binding response (% of control), % at 10 µM; bead-based flow cytometry RGS16-Galphao binding, fluorescence; actives lie on both sides; hit rate 0.38% among 220,000; Regulator of G-protein signaling 16 (Homo sapiens) + Guanine nucleotide-binding protein …;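 active = below 25% or above 175%, edge rows of some plates excepted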;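 also: Galphao activated by GDP with aluminum fluoride before binding; 100% = wells without compound and 0% = beads without RGS; some results beyond the cut were filed as inactive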
GALR2 ag = GALR2 receptor agonists, primary screen, cell-based. Galanin receptor type 2 (Homo sapiens), O43603. GALR2-expressing cells, agonist activation read-out. activation, %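 (tested at 5 µM)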. hit rate 0.48% among 140,000. AID 803, 2007;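 active = above mean plus 3 SD of all compounds, about 5% in these data, not always enough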;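 also: 0% = vehicle buffer wells and 100% = reference agonist at full effect; tested in CHO reporter cells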
PKD1 kinase inh = inhibitors of human PKD1 kinase, biochemical, fluorescence polarization. PKD1 kinase fluorescence polarization assay. inhibition, %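 (about 10 µM by stock and volumes)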. hit rate 0.056% among 200,000. AID 797, 2007;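 active = inhibition of 50% or more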;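 also: controls were vehicle for no effect and a reference inhibitor for full effect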
Target sequence (Q15139 whole entry, looked up): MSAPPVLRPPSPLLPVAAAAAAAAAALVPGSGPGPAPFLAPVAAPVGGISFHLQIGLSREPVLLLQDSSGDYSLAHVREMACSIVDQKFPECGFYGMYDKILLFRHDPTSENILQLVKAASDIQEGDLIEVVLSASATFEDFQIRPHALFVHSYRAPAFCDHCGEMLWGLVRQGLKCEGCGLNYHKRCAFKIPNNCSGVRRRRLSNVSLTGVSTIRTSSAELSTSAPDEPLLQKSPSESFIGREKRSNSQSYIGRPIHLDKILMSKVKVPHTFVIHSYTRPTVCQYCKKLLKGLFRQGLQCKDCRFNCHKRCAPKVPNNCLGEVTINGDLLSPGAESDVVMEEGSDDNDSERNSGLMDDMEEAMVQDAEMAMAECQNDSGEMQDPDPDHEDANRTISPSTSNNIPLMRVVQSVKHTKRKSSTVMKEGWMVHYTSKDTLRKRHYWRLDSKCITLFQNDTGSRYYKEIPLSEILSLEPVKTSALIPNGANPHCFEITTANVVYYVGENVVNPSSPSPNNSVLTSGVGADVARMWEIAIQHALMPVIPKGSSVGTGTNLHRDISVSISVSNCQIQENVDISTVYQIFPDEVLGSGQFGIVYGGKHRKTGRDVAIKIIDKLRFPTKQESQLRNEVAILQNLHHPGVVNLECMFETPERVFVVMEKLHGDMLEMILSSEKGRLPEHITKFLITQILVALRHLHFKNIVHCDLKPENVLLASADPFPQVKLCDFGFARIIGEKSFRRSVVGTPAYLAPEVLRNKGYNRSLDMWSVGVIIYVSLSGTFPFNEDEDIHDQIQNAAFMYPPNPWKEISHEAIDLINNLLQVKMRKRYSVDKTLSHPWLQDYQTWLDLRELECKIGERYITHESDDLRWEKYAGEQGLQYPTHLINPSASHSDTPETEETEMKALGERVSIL
Insulin prom inh cell count = recorded beside Insulin prom inh, whose call it bears; normalized cell count, %; measured here: cell count, toxicity; reference of the scale not given here;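 cells exposed to compound for 48 h; stained nuclei by imaging scaled within each plate; lower means fewer cells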
HSV replic up primary fold = recorded beside HSV replic up, whose call it bears; fold increase; compound at 10 µM; measured here: primary screen fold increase 10 uM; tested in PC3 cells;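 GFP signal in the first replicate; 1 = infected wells without compound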
Numbers without * were called inactive; i = inactive; · = no result given.

SMILES	Insulin prom inh	Insulin prom inh cell count	HSV replic up	HSV replic up primary fold	RGS16-Gao HTS	GALR2 ag	PKD1 kinase inh
Cc1c(/C=N\NC(=O)c2cccc(F)c2)cnn1C	-379	37	i	0.99	88	-0.7	-11
O=C(Cc1ccccc1)CC1(O)C(=O)Nc2ccccc21 (centres undefined)	55	114	i	0.99	103	-2.6	-3
O=C(NCCN1CCOCC1)c1ccc(CSCc2cccc(Cl)c2)o1	-33	133	i	0.92	102	·	8
NC(=O)CC(NC(=O)Cc1cccc2ccccc12)c1ccc(NCCc2ccc(F)cc2)c([N+](=O)[O-])c1 (centres undefined)	·	·	i	0.82	100	·	·
COC(=O)C1CN(S(=O)(=O)c2ccccc2)CCN1S(=O)(=O)c1ccccc1 (centres undefined)	-8	96	i	0.83	95	1.0	-7
CCCc1c(C)nc2c(OC)cccc2c1SCC(=O)O	12	59	i	0.95	103	·	-4
COC(=O)C1CCN(S(=O)(=O)c2c(C)n(C)c(=O)n(C)c2=O)CC1	·	·	i	0.76	98	-4.1	1
CCOCCCNC(=O)/C(C#N)=C/c1cc(OC)c(O)c([N+](=O)[O-])c1	·	·	i	0.86	105	·	-14
COc1ccc(C)cc1S(=O)(=O)N(C)CC(=O)N1CCCCC1	-321	88	i	0.94	95	-1.6	-3
CCOc1ccccc1C1NC(=O)NC(C)=C1C(=O)OC1CCCCC1 (centres undefined)	·	·	i	0.88	102	-2.2	-10
Cc1nc(NC(=O)c2ccc3c(c2)OCO3)ccc1Br	42	112	i	0.92	105	·	5
COc1ccc(/C(N)=N/OC(=O)CSc2ccccc2)cc1OC	33	130	i	0.82	98	0.1	-2
NC(=O)COC(=O)CN1C(=O)C2CCCCC2C1=O (centres undefined)	·	·	i	1	100	-0.4	-7
O=C(Cc1ccccc1)NCC(=O)OCC(=O)c1cccc([N+](=O)[O-])c1	·	·	i	1.1	89	-0.2	-3
CC1CCc2nc3ccccc3c(C(=O)OCC(=O)N(C)C3CCS(=O)(=O)C3)c2C1 (centres undefined)	-29	146	i	0.96	98	·	-2
Cc1ccc(C(=O)CSc2nc3ccccc3o2)cc1	47	131	i	0.96	98	-2.0	-4
CCC(=O)N1CCc2cc(Br)cc(S(=O)(=O)NCCN3CCCCC3C)c21 (centres undefined)	-162	69	i	0.93	99	-1.8	2
CCN1C(=O)c2cccc3c(NC(=O)c4cccc(N5C(=O)CCC5=O)c4)ccc1c23	·	·	·	·	100	-1.6	17
CCOC(=O)N1CCN(C(=O)c2ccc3c(=O)n(CCc4ccccc4)c(=S)[nH]c3c2)CC1	18	108	i	1.1	101	11	-8
N#Cc1cc(O)c(-n2nnc3ccccc32)cc1C#N	11	114	i	1	65	·	-3
CCN(CC)S(=O)(=O)c1ccc(NN=C2CCN(C(C)C)CC2)c([N+](=O)[O-])c1	·	·	i	0.92	108	·	·
O=c1c(Cc2ccccc2O)c(O)nc2n1CCCS2	·	·	i	0.9	98	-0.8	-1
CCOc1ccc2cc(C#N)c(SCC(=O)N3CCC(C)CC3)nc2c1	11	74	i	0.91	101	-2.7	3
CC(=O)OC(C)CS(=O)(=O)c1ccccc1 (centres undefined)	18	107	i	0.93	21*	·	-6
Cc1nc2c(C#N)c(C)[nH]n2c(=O)c1Cc1ccccc1	-38	107	i	1.1	97	-2.5	-10

Three compounds from above with just HSV replic up primary fold and Insulin prom inh cell count:
mol | HSV replic up primary fold | Insulin prom inh cell count
O=C(NCCN1CCOCC1)c1ccc(CSCc2cccc(Cl)c2)o1 | 0.92 | 133
NC(=O)CC(NC(=O)Cc1cccc2ccccc12)c1ccc(NCCc2ccc(F)cc2)c([N+](=O)[O-])c1 (centres undefined) | 0.82 | ·
COC(=O)C1CN(S(=O)(=O)c2ccccc2)CCN1S(=O)(=O)c1ccccc1 (centres undefined) | 0.83 | 96

(listing goes on)
SMILES	Insulin prom inh	Insulin prom inh cell count	HSV replic up	HSV replic up primary fold	RGS16-Gao HTS	GALR2 ag	PKD1 kinase inh
O=C(COc1ccc(S(=O)(=O)NCc2ccccc2)cc1Cl)N1CCOCC1	-333	45	i	0.94	91	-2.0	6
Cc1nc(SCC(=O)N2CC(=O)Nc3ccccc32)nc(C)c1C	·	·	i	1	101	·	1
C=CCOC(=O)C1=C(C)N=C2SCCC(=O)N2C1c1ccc(OC(=O)c2ccco2)cc1 (centres undefined)	14	85	i	0.92	111	-2.6	0
CCC1(C)Cc2ccccc2-c2nc3n(c(=O)c21)CC(C(=O)O)S3 (centres undefined)	·	·	i	0.75	100	-1.0	-2
Cc1ccc(O)c(CP(=O)(c2ccccc2)c2ccccc2)c1	-14	57	i	1.1	93	-2.4	-4
COCCCNC(=O)c1cn(CC(C)C)c(=O)c2c1c1ccccc1n2C	-61	89	i	0.84	108	20*	2
CC1CCN(CC(=O)Nc2cccc([N+](=O)[O-])c2)CC1	·	·	i	1	125	-2.5	-4
COC(=O)c1cc(C(=O)Nc2ccc(C)cn2)cc([N+](=O)[O-])c1	7	73	i	0.79	·	0.7	6
O=C1NC(=S)N/C1=C/c1cc([N+](=O)[O-])ccc1N1CCOCC1	-28	62	i	0.99	100	·	-1
CCc1ccccc1NC(=O)c1nnn(CC(=O)Nc2cccc(C)c2)c1N	-75	122	i	0.93	103	-0.7	0
COc1ccccc1C(=O)N/C(=C\c1ccc(Br)cc1)C(=O)NCCCO	·	·	i	1	117	·	-8
Brc1ccc2nc(N3CCN(c4ccccc4)CC3)sc2c1	·	·	i	0.93	97	·	3
Cc1c(N2C(=O)c3ccc4c5c(ccc(c35)C2=O)CC4)c(=O)n(-c2ccccc2)n1C	-13	114	i	0.95	82	-3.9	-8
O=C(CSc1ncn[nH]1)Nc1nc(-c2ccccc2)ns1	-8	112	i	0.87	122	-1.9	2
CC1(NC(=O)NCc2ccccc2)CCS(=O)(=O)C1 (centres undefined)	·	·	i	1.1	99	·	-14
COC(C[C@H](O)[C@H](C)[C@@H](O)COCc1ccccc1)OC	·	·	i	0.99	88	·	·
CCn1ncc(C2=NOC(C(=O)Nc3cnn(C45CC6CC(CC(C6)C4)C5)c3)C2)c1C (centres undefined)	·	·	i	0.72	106	-1.2	-6
CCC(=O)c1ccc(OCC(O)CN2CC(C)OC(C)C2)cc1 (centres undefined)	·	·	i	0.87	101	-0.1	-9
COc1ccc(NC(=O)N(Cc2cc3cc(C)ccc3[nH]c2=O)CC2CCCO2)cc1 (centres undefined)	·	·	i	0.85	102	·	·
CC(C)OCCCN1CN(S(=O)(=O)c2cccc(Cl)c2)c2nc3ccccc3nc21	-34	106	i	1.1	96	-0.2	-1
CCC(=O)c1ccc(OCC(O)CNC(C)c2ccccc2)cc1 (centres undefined)	·	·	i	1.1	82	-0.6	1
O=C(NCc1ccco1)NCC(F)(F)F	9	94	i	0.9	102	-0.3	-6
COc1ccc(Nc2c([N+](=O)[O-])ccc3c2=NC2(CCCCC2)N=3)cc1	·	·	i	0.92	100	·	-10
Cc1cccc(OCCNc2ccc([N+](=O)[O-])cn2)c1	-8	130	i	1	99	·	2
COc1cccc(/C=N/NC(=O)Cn2cnc3c2c(=O)n(C)c(=O)n3C)c1OC	·	·	i	0.99	94	·	·

One compound at a time, from the list above.
`O=C(COc1ccc(S(=O)(=O)NCc2ccccc2)cc1Cl)N1CCOCC1` is entered as Insulin prom inh = -333; Insulin prom inh cell count = 45; HSV replic up = i; HSV replic up primary fold = 0.94; RGS16-Gao HTS = 91; GALR2 ag = -2.0; PKD1 kinase inh = 6
`Cc1cccc(OCCNc2ccc([N+](=O)[O-])cn2)c1` is entered as Insulin prom inh = -8; Insulin prom inh cell count = 130; HSV replic up = i; HSV replic up primary fold = 1; RGS16-Gao HTS = 99; GALR2 ag = ·; PKD1 kinase inh = 2
`COc1ccc(Nc2c([N+](=O)[O-])ccc3c2=NC2(CCCCC2)N=3)cc1` is entered as Insulin prom inh = ·; Insulin prom inh cell count = ·; HSV replic up = i; HSV replic up primary fold = 0.92; RGS16-Gao HTS = 100; GALR2 ag = ·; PKD1 kinase inh = -10

Next results:
SMILES	Insulin prom inh	Insulin prom inh cell count	HSV replic up	HSV replic up primary fold	RGS16-Gao HTS	GALR2 ag	PKD1 kinase inh
CC1CCCCN1C(C(=O)O)c1ccccc1 (centres undefined)	·	·	i	1	147	·	-1
CC(C)(C)NC(=S)NCC1CC1	·	·	i	0.75	103	·	·
Cc1oc(C(=O)O)cc1CSc1nnc(-c2ccccc2)n1C	-3	99	i	0.94	174	-1.1	2
Cc1ccc(-n2c(=O)[nH]c3c(C(N)=O)nc(CC(C)C)nc32)cc1	93*	76*	i	0.94	97	0.6	-5
CN1C(=S)SC(N(O)C(=O)Nc2ccccc2)C1(C)C (centres undefined)	7	107	i	0.97	98	-2.1	-5
CSCCCNC(=S)Nc1cccc(S(=O)(=O)NC2=NCCC2)c1	·	·	i	0.91	100	·	0
Cc1cc(-c2ccccc2)nc(SCC(=O)N2CCCC2)n1	·	·	i	0.97	94	·	-5
CCOC(=O)C1CCCN(S(=O)(=O)c2ccc(S(N)(=O)=O)cc2)C1 (centres undefined)	·	·	i	0.92	100	·	-4
CCC(=O)N(Cc1ccco1)c1nc(-c2cc(OC)ccc2OC)cs1	11	109	i	0.78	100	-1.2	-3
Cc1ccc(CC2C(=O)N(c3nc(C)cc(C)n3)C(=O)C2C)cc1 (centres undefined)	·	·	i	0.99	103	·	-3
O=C(O)c1c2c(nc3ccccc13)/C(=C/c1ccc(O)cc1)CCC2	·	·	i	1	98	·	-3
CN1CCN(CC(=O)N(Cc2c(C#N)c3ccccc3n2C)c2ccccc2)CC1	-54	82	i	0.89	105	-1.1	-6
CC(c1ccccc1)N1CCn2c(nc3cc(NC(=O)c4cccs4)ccc32)C1 (centres undefined)	31	111	i	0.93	103	-2.2	-6
CC(NC(=O)COC(=O)c1ccc(Cl)cc1O)c1ccc(F)cc1 (centres undefined)	-27	128	i	0.97	130	·	-2
COc1ccc(C(=O)C2CCCN(C(=O)/C=C/c3ccccn3)C2)c(C)c1 (centres undefined)	·	·	i	0.96	107	·	-2
CCCCCOC(=O)Cc1c(O)c2ccccc2[nH]c1=O	46	113	i	1	94	-1.4	-14
O=C(N/N=C/c1cn(-c2ccccc2)nc1-c1ccccc1)c1ccco1	·	·	i	0.66	98	-1.1	3
CCn1c(=O)cc(OCC(=O)Nc2cccc(C)n2)c2ccccc21	·	·	i	0.98	102	120*	-2
COC(=O)c1cc(C)sc1NC(=O)C1C2C=CC(CC2)C1C(=O)O (centres undefined)	-80	123	i	0.98	107	-1.6	-6
O=C(c1ccccc1)c1cnc(Nc2ccccc2Cl)s1	10	138	i	0.72	100	-1.1	-1
COc1ccc(-n2c(=O)c3ccccc3n(CC(=O)OCc3ccccc3)c2=O)cc1OC	·	·	i	0.96	83	·	9
CN1CCN(c2ccc(NC(=O)c3sc4ccccc4c3Cl)cc2)CC1	-58	120	i	0.88	113	·	-8
C/C(=N\NC(=O)c1cccnc1)c1cc2ccccc2o1	·	·	i	0.92	94	·	-4
Cc1nc2cc(NC(=O)N3c4ccccc4CC3C)ccc2n1C (centres undefined)	37	78	i	0.79	102	-0.9	8
Cc1cc(NC(=O)Cn2cnc3sc(C)c(-c4ccccc4)c3c2=O)no1	50	70	i	0.89	100	-0.1	-7
COc1ccc(-c2cc(C(=O)N/N=C/c3ccc4c(c3)OCO4)c3ccccc3n2)c(OC)c1	0	107	i	1.1	92	-1.9	7

Of the compounds above, these contain a Cl atom.
SMILES	Insulin prom inh	Insulin prom inh cell count	HSV replic up	HSV replic up primary fold	RGS16-Gao HTS	GALR2 ag	PKD1 kinase inh
O=C(NCCN1CCOCC1)c1ccc(CSCc2cccc(Cl)c2)o1	-33	133	i	0.92	102	·	8
O=C(COc1ccc(S(=O)(=O)NCc2ccccc2)cc1Cl)N1CCOCC1	-333	45	i	0.94	91	-2.0	6
CC(C)OCCCN1CN(S(=O)(=O)c2cccc(Cl)c2)c2nc3ccccc3nc21	-34	106	i	1.1	96	-0.2	-1
CC(NC(=O)COC(=O)c1ccc(Cl)cc1O)c1ccc(F)cc1 (centres undefined)	-27	128	i	0.97	130	·	-2
O=C(c1ccccc1)c1cnc(Nc2ccccc2Cl)s1	10	138	i	0.72	100	-1.1	-1
CN1CCN(c2ccc(NC(=O)c3sc4ccccc4c3Cl)cc2)CC1	-58	120	i	0.88	113	·	-8

Compound activity (PubChem)
